High-throughput results deposited in PubChem BioAssay by Fisher Drug Discovery Resource Center.
NPYLR7 ag = mosquito NPYLR7 agonism. HEK293T NPYLR7/Galpha15, GCaMP6s calcium fluorescence. activation, % at 10 µM. actives 0.15% (n = 270,000). AID 1259423; in the data active = activation above about 40%;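 note: 0% = vehicle and 100% = reference agonist at the receptor; some compounds past the cut are filed as inactive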
NPYLR7 ag max-min = second read-out of NPYLR7 ag, no call of its own (marks repeat the call); activation, %; measured here: Max-Min RFU normalised activation; some inactives read as strong as hits;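 span of the calcium signal over five minutes; 0% = vehicle and 100% = native peptide agonist; compound fluorescence can raise it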
An asterisk follows results filed as active; & = joins results of further samples.

canonical_smiles	NPYLR7 ag	NPYLR7 ag max-min
O=S(=O)(/C=C/c1ccccc1)Nc1ccccc1C(F)(F)F	7	4
CCOC1CC(N(C)c2nn3c(=O)ccnc3s2)C12CCCC2 (stereo not given)	3	1
C=C(C)CNC(=O)c1cncn1-c1cccc(-c2cccc(OC(F)(F)F)c2)c1	-5	-13
COc1cccc(CN2CCCC3(CCN(C(=O)/C=C/c4ccncc4)C3)C2)c1 (stereo not given)	3	-7
CCOC(=O)c1c(CN2CCCC2)n(-c2ccccc2)c2cc(Br)c(OC)cc12	-9	-15
Clc1ccc(-c2csc(-c3cccnc3)n2)s1	7	11
Cc1nc2ncc3c(=O)n(N4CCN(C)CC4)ccc3n2n1	2	4
COc1cc(C(=O)N2CCN(Cc3ccc(-c4noc(-c5ccccc5)n4)cc3)CC2)ccc1F	8	11
CCN(C/C=C/c1ccccc1)C(=O)c1ccc(C(C)=O)s1	5	3
CCCCCc1ccc(C(=O)N2CCN(c3nc(-c4ccc(C)cc4)nc(C)c3C)CC2)cc1	-5	4
O=C(O)C1COC2(CCCCC2)N1C(=O)c1cccs1 (stereo not given)	13	14
Cc1[nH]ncc1C(=O)NC(C)C1(N2CCOCC2)CCCC1 (stereo not given)	3	3
Cc1nnc(-c2cccc(NC(=O)C3CCN(C(=O)c4ccsc4)CC3)c2)s1	1	2
O=C(C1CCC1)N(Cc1ccccc1)[C@@H]1C[C@@H]2CO[C@H](c3ccccc3)C[C@@H]2C1	10	18
COc1cccc(COc2coc(C(=O)Nc3nnc(C)s3)cc2=O)c1	1	2
COc1cccc(-n2c(=O)[nH]c3c(C(N)=O)nc(-c4ccc(F)c(F)c4)nc32)c1	10	4
Cc1ccc(OCC(=O)O)c2c1C(C)/C(=C/c1cnn(C)c1)C2=O (stereo not given)	3&-2	9&-3
COc1nc(-c2cccc(C(F)(F)F)c2)n(-c2ccc(NCC(O)COCc3ccccc3)cc2)n1 (stereo not given)	26	24
COc1cccc(-c2ncc(CN3C[C@H]4C[C@H](O)[C@H](O)C[C@H]4C3)s2)c1	-1	2
CC(=O)c1ccc(N2CCN(C(=O)CCC(=O)N3CCc4ccccc4C3)CC2)cc1	-10	-19
COc1cc2nc(NC(C)c3ccccn3)nc(N)c2cc1OC (stereo not given)	9	9
CC(NC(=O)c1ccc(NC(=O)CSc2nncn2C)cc1)C1CC1 (stereo not given)	2	2
Cn1ccc(CN2CCCCC2C(=O)Nc2ccc(Cl)c(Cl)c2)cc1=O (stereo not given)	-2	-5
CCN1CCN(S(=O)(=O)c2ccc(OC)c(N3CCN(C(=O)C=C(C)C)CC3)c2)CC1	22	16
COc1ccc(NC(=O)c2ccc(CSc3nnc(-c4ccncc4)n3-c3ccc(F)cc3)cc2)cc1OC	2	6
O=C(CN1CSCC1=O)Nc1nc(-c2ccc3ccccc3c2)cs1	-2	-2
CC(C(=O)NCCN(C)S(C)(=O)=O)N1C[C@@H](C)O[C@@H](C)C1 (stereo not given in full)	-5	-7
COc1ccccc1N1CCN(c2ccc(NC(=O)c3ccc(Cl)cc3)cc2C(=O)NC2CC2)CC1	-9	-12
CC(C)CC(NC(=O)c1cccn(C)c1=O)c1nnc2n1CCNCC2 (stereo not given)	-1	-4
COc1cc2c(cc1OC)C(c1ccccc1Cl)N(C(=O)Nc1cccc(C#N)c1)CC2 (stereo not given)	21	8
CCCN1C(=O)C(=Cc2ccccn2)SC1=S	-12	-12
Cc1cccc(-c2ccc(CNC(=O)c3ccc(=O)n(C)n3)cc2)c1	0	-3
CCOc1ccccc1C=C1N=C(c2ccc(F)cc2)OC1=O	3	1
O=C(CSc1ccc(NC(=O)C2CC2)nn1)NCc1ccc2c(c1)OCO2	1	-1
COCC(=O)NCc1ccc(C)cc1OCC1CC1	8	2
CCOC(=O)C1CCCN(C(=O)c2nn(-c3cccc(C)c3)c(=O)n(Cc3ccccc3Cl)c2=O)C1 (stereo not given)	13	20

As entered above.
O=C(CN1CSCC1=O)Nc1nc(-c2ccc3ccccc3c2)cs1 @ NPYLR7 ag max-min = -2
COc1ccccc1N1CCN(c2ccc(NC(=O)c3ccc(Cl)cc3)cc2C(=O)NC2CC2)CC1 @ NPYLR7 ag = -9
COCC(=O)NCc1ccc(C)cc1OCC1CC1 @ NPYLR7 ag max-min = 2
O=C(CSc1ccc(NC(=O)C2CC2)nn1)NCc1ccc2c(c1)OCO2 @ NPYLR7 ag max-min = -1

Continued:
canonical_smiles	NPYLR7 ag	NPYLR7 ag max-min
N#CC(=Cc1ccc(O)c(O)c1)c1nnc2n1CCCCC2	18	3
CCOCCCNC(=O)Nc1cn(C)c2ccccc12	2	-1
O=C(c1ccco1)N1CCc2ccc(NS(=O)(=O)c3ccc(F)cc3F)cc2C1	1	1
O=C(NCc1ccccc1F)N(Cc1ccco1)Cc1ccccc1O	2	0
CCOc1ccc(-n2ccnc(SCC(=O)NC3CCCCC3)c2=O)cc1	1	8
CC1CCN(S(=O)(=O)c2ccc(-c3nc(C#N)c(NCc4ccc5c(c4)OCO5)o3)cc2)CC1	0	20
COc1ccc(-n2nc(C(=O)N3CCN(C)CC3)c(=O)n(Cc3cccc(C(F)(F)F)c3)c2=O)cc1OC	14	11
CC(C)(C)OC(=O)NC1(c2nc(-c3ccncc3)no2)CC1	-19	-19
Cc1[nH]n(-c2nc(-c3ccc(Br)cc3)cs2)c(=O)c1N=Nc1ccccc1[N+](=O)[O-]	1	-3
CN1CCN(c2ccc(CNCc3ccc(F)cc3F)cn2)CC1	8	8
COc1cccc(S(=O)(=O)N2CCN(c3nc4ccccc4nc3C)CC2)c1	17	10
COc1cccc(-c2cnc(C3CCCN3)[nH]2)c1 (stereo not given)	-7	-7

Structures from the list above that contain a furan ring, fused or not, in the order listed:
canonical_smiles	NPYLR7 ag	NPYLR7 ag max-min
O=C(c1ccco1)N1CCc2ccc(NS(=O)(=O)c3ccc(F)cc3F)cc2C1	1	1
O=C(NCc1ccccc1F)N(Cc1ccco1)Cc1ccccc1O	2	0

Record cards (already shown).
CC(C(=O)NCCN(C)S(C)(=O)=O)N1C[C@@H](C)O[C@@H](C)C1 (stereo not given in full) in the list: NPYLR7 ag: -5; NPYLR7 ag max-min: -7
O=C(CN1CSCC1=O)Nc1nc(-c2ccc3ccccc3c2)cs1 in the list: NPYLR7 ag: -2; NPYLR7 ag max-min: -2

Following part:
canonical_smiles	NPYLR7 ag	NPYLR7 ag max-min
CC1(C(=O)Nc2cnc3ccccc3c2)CCN1C(=O)C/C=C/c1ccccc1 (stereo not given)	14	15
OCc1csc(N2CC(c3cccnc3)C2)n1	34	17
COc1ccc(CN(CCc2c[nH]c3ccccc23)C(=O)CN(C(=O)Nc2ccccc2C)C2CC2)cc1OC	5	12
COc1ccc(NC(=O)N2CCN(Cc3cccs3)CC2)cn1	3	1
COc1ccc(CCC(C)NC(=O)Nc2ccnn2CC(C)C)cc1 (stereo not given)	-6	-5
CCc1nc2cc(NC(=O)N(CCOC)Cc3ccco3)ccc2o1	7	5
CCOC(=O)c1ccc(NC(=O)CSc2nnc(CNC(=O)c3ccc(S(=O)(=O)N4CCCC4)cc3)n2-c2ccccc2OC)cc1	-5	3
CCN(CC)CCNC(=O)c1cc(NC(=O)Nc2cccc(C)c2C)ccc1N1CCCCC1	21	22
CCc1nc2n(n1)C(=O)C(C(c1ccc(Cl)cc1Cl)N1CCN(C)CC1)S2 (stereo not given)	-3	-7
CC1=CC(=NNc2nc3ccccc3[nH]2)CC1	2	1
O=C(Nc1cccc(C(F)(F)F)c1)Nc1nn(Cc2ccc(COc3ccc4c(c3)OCO4)cc2)c2ccc(C(F)(F)F)cc12	5	4
C#CCN(CC=C)C(=O)C1CCC(=O)N(Cc2ccccn2)C1 (stereo not given)	20	14
COc1ccc(CCNC(=O)CN2CN(c3ccccc3)C3(CCN(C(=O)c4c(OC)cccc4OC)CC3)C2=O)cc1OC	30	28
O=C(c1ccc(Cl)cc1Cl)N1CCN(c2cc(Oc3ccc(F)c(F)c3)ncn2)CC1	1	7
Cc1ccccc1-n1ncc(C(C)NC(=O)CCn2cccn2)c1C (stereo not given)	1&13	1&7
O=C(Nc1cccc(Oc2ccccc2)c1)c1cccnc1Oc1cccc([N+](=O)[O-])c1	-7	-12
CCOC(=O)C1(Cc2ccc(OC)cc2)CCN(S(=O)(=O)c2ccccc2F)CC1	7	3
CCCCn1c(CNC(=O)C23CC4CC(CC(C4)C2)C3)n[nH]c1=S	-2	-2
Cc1nccc(C(=O)NC(c2cccs2)C2CCCC2)n1 (stereo not given)	-2	-3
CC(C)(C)c1cc(CN2CCC3(CCNCC3)C2)[nH]n1	10	8
Cc1cc(N)n(C(=O)OC(C)(C)C)n1	-10	-11
COc1ccc2c(c1)C1(SCCN1C(=O)NC1CCCCC1)C(=O)N2Cc1ccc(F)c(F)c1 (stereo not given)	9	13
CC(C)(C(=O)Nc1ccc2c(c1)CCC(=O)N2)c1ccccc1F	7	6
Cc1cc(C(=O)CN2C(=O)NC3(CCCCC3C)C2=O)c(C)n1CCC1=CCCCC1 (stereo not given)	0	0
COc1ccc(S(=O)(=O)N2CCN(c3ccc(N4CCCCC4C)nn3)CC2)c(OC)c1OC (stereo not given)	5	1
CC(C)Cn1cc(C(=O)NCCc2cccs2)c(=O)c(C(=O)N2CCCCCC2)c1	14	2
CCN(CC(=O)Nc1cc(C(C)(C)C)nn1-c1ccc(C)cc1)C(=O)Nc1ccc(F)cc1F	-3	12
CC(C)c1ccc(CC(=O)N2CCC2(C)C(=O)NS(=O)(=O)c2ccccc2)cc1 (stereo not given)	7	6
Cc1ccc(C(=O)CSc2nnc(N)s2)c(C)c1	7&1	7&6
CCn1cc(C(=O)N2CCCc3ccccc32)c2nn(-c3ccccc3)c(=O)c-2c1	4	3
COc1ccc(S(=O)(=O)NC(=O)C2(C)CCN2C(=O)Cc2ccccc2)cc1OC (stereo not given)	1	-2
COCCN1C[C@@H]2C[C@@H](C(N)=O)N(C(=O)c3cccc4c3OC(F)(F)O4)c3cccc(c32)C1=O	6	18
COc1cccc(-c2cnc(-c3cccc(CNC(=O)c4ccc(F)c(C(F)(F)F)c4)c3)[nH]2)c1	-3	-5
C=C(C)CNC(=O)c1cncn1-c1ccc(-c2c(OC)cccc2OC)cc1	1	-2
O=C(COc1ccc(F)cc1Cl)NCc1ccc(-c2ccn[nH]2)cc1	7	5
COc1cc(OC)c(NC(=O)CCC2CCCCC2)cc1Cl	1	0
CCN(CC(=O)Nc1cc(OC)c(OC)c(OC)c1)C(C)c1ccc(F)cc1 (stereo not given)	-5	-7
CCC(=O)N1CCN(CCN=Cc2c(C)[nH]n(-c3ccc([N+](=O)[O-])cc3)c2=O)CC1	-18	-20
Cc1noc(C)c1CN(C)C(=O)C1(c2cccs2)CC1(C)C (stereo not given)	-5	-3
CCn1nc(CC(C)C)cc1C(=O)N1CCC2(CCCNC2)C1 (stereo not given)	9	7
COc1ccc(CCN(C)C(=O)C(C)c2cccc(C(=O)c3ccccc3)c2)cc1OC (stereo not given)	-8	-16
CCn1c(O)c(C(C)=NC2CCCCCC2)c(=O)n(CC)c1=S	6	3
CCC(=O)N1N=C(c2c(-c3ccccc3)c3cc(C)ccc3[nH]c2=O)CC1c1ccco1 (stereo not given)	2	-3
Cc1nn(CC(=O)OCC(=O)c2ccc[nH]2)c(C)c1[N+](=O)[O-]	2	-2
CN1CC[C@]23c4ccccc4N[C@H]1[C@]21CCN(C)[C@H]3Nc2ccccc21	-2	-7
O=C1c2nc(-c3cccnc3)ccc2CN1C1(C(=O)NCCCN2CCOCC2)CC1	11	24
O=c1[nH]c(/C=C/c2ccc(OCc3ccccc3)cc2)c([N+](=O)[O-])c(=O)[nH]1	9	4
Cc1ccc(CSc2c(CC(C)C)cnc3c2c(=O)n(C)c(=O)n3C)cc1	4	3
C=CCn1c(SCC(=O)OCc2ccccc2)nc2c1c(=O)[nH]c(=O)n2C	3	4
CNC(=O)c1cc(-c2ccc(OC)c3ncccc23)ccc1Cl	7	7
CCCCCC(O)c1cccc(OCc2ccc3ccccc3n2)c1 (stereo not given)	-1	29
Cc1nc(C(C)(C)NC(=O)c2cc3ccccc3c(=O)[nH]2)sc1C	12	11
O=C(c1cccs1)N(Cc1ccc(OCc2nc(CO)cs2)cc1)C1CC1	26	35
NC(=O)CC(=O)N1C2CCC(O)(CC2)C1CN1CCOCC1 (stereo not given)	3	15
O=C(NC1Cc2ccccc2C1)C1CCC(=O)N(CCCc2ccccc2)C1 (stereo not given)	-5	-7
CCCCC(Cc1ccccn1)OC(=O)c1cnn(C)c1 (stereo not given)	4	3
Cc1c[nH]c(CN2CCC(N)CC2)c(C)c1=O	1	0
O=C(c1ccccc1)n1c(C2(c3ccc(Cl)cc3)CCC2)n[nH]c1=S	-1	-8
CC1CN(S(=O)(=O)N2CC3CCCC3C2)CCO1 (stereo not given)	6	4
CN(C)c1ccc(NC(=O)c2ccccc2Cl)cc1CN(C(=O)C1CC1)C1CCCCC1	-2	7

Following part:
canonical_smiles	NPYLR7 ag	NPYLR7 ag max-min
CC(C)COc1nc(-c2ccccc2F)n(-c2ccc(NC(=O)c3ccc([N+](=O)[O-])cc3)cc2)n1	10	16
N#Cc1ccc(C(=O)Nc2ccc3c(c2)N(S(N)(=O)=O)CC3)nc1	-2	-3
C=C(C)Cn1c(SCc2ccc(Cl)cc2)nc2c1c(=O)n(C)c(=O)n2C	0	15
O=C(NC(c1ccc(-c2ccccc2)cc1)c1cnccn1)C1CCN(CCOc2ccc(Cl)cc2Cl)CC1 (stereo not given)	0	-3
O=C(NN=Cc1cccs1)c1cccc([N+](=O)[O-])c1	4	3

The list is partial; rates above refer to the full screens.
